# Screening data from PubChem BioAssay.
# PKD1 inh: PKD1 (human) kinase inhibition; 200,000 tested, 0.056% active; PKD1 kinase fluorescence polarization assay; inhibition, %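 (about 10 µM by stock and volumes)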; AID 797;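 active = inhibition of 50% or more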;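 also: controls were vehicle for no effect and a reference inhibitor for full effect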
# Target sequence (Q15139 whole entry, looked up): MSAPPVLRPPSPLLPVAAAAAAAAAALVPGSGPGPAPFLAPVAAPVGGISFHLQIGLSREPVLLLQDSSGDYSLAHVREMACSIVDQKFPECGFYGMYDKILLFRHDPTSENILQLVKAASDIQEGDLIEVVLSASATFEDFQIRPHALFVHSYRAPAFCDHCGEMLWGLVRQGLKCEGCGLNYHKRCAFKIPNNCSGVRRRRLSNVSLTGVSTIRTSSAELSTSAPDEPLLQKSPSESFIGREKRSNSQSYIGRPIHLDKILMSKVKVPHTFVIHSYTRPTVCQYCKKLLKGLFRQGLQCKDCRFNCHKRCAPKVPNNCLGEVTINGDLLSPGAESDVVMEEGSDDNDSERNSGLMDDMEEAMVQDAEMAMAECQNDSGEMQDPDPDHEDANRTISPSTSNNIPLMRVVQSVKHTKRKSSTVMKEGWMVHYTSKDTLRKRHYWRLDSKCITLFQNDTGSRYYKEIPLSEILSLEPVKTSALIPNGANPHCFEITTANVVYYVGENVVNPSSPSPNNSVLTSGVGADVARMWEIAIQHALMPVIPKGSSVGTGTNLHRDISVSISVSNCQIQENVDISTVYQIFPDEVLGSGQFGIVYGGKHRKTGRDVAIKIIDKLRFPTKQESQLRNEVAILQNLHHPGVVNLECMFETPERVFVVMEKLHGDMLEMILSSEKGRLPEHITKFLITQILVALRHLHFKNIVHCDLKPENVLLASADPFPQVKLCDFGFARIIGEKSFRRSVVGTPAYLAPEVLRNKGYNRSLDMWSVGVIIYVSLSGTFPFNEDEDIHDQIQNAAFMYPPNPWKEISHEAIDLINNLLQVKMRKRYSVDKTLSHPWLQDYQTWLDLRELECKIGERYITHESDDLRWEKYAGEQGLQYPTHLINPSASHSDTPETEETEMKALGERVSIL
# Insulin prom inh: TRM-6 insulin promoter activity inhibition | TRM-6 cells (human fetal islet line), insulin promoter-eGFP reporter, imaging; reporter expression induced with tamoxifen | inhibition, % at 2 µM | 130,000 tested, 0.9% active | AID 1273;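 active = inhibition above the mean plus 3 SD, with well images judged a real hit on visual review, cut at about 60% in these data, passing the limit was not always enough; inconclusive = inhibition over the cutoff but images rejected on review; inactive = inhibition not above the cutoff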
# RGS16-Gao: modulates binding between human RGS16 and Galphao. bead-based flow cytometry RGS16-Galphao binding, fluorescence; actives lie on both sides. 220,000 tested, 0.38% active. binding response (% of control), % at 10 µM. AID 1441. O15492+P09471;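 active = below 25% or above 175%, edge rows of some plates excepted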;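 also: Galphao activated by GDP with aluminum fluoride before binding; 100% = wells without compound and 0% = beads without RGS; some results beyond the cut were filed as inactive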
# HSV replic up: HSV replication enhancement | AID 1956 | maximum fold increase | HSV replication augmentation in cells, fold increase | 220,000 tested, 0.005% active;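 active = peak rise of 1.5-fold or more in the series; inconclusive = self-fluorescent or not available for retest; tested in PC3 cells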;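 also: first round at 10 µM; read as green reporter fluorescence; hits show the peak of a series up to 25 µM; 1 = signal of infected wells without compound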
# GALR2 ag: agonists of human galanin receptor 2 (GALR2); GALR2-expressing cells, agonist activation read-out; activation, %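 (tested at 5 µM)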; O43603; 140,000 tested, 0.48% active;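 active = above mean plus 3 SD of all compounds, about 5% in these data, not always enough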;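 also: 0% = vehicle buffer wells and 100% = reference agonist at full effect; tested in CHO reporter cells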
# Insulin prom inh cell count: second read-out of Insulin prom inh, no call of its own (marks repeat the call); normalized cell count, %; measured here: cell count, toxicity; reference of the scale not given here;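 cells exposed to compound for 48 h; stained nuclei by imaging scaled within each plate; lower means fewer cells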
# HSV replic up primary fold: second read-out of HSV replic up, no call of its own (marks repeat the call); fold increase; compound at 10 µM; measured here: primary screen fold increase 10 uM; tested in PC3 cells;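 GFP signal in the first replicate; 1 = infected wells without compound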
# Starred values were filed as active, the others as inactive; i = inactive; u = inconclusive; x = not tested or not shown; [ ] = another dose, or the depositor's remark.
nr	SMILES	PKD1 inh	Insulin prom inh	Insulin prom inh cell count	RGS16-Gao	HSV replic up	HSV replic up primary fold	GALR2 ag
1	COc1cccc(N2CCN(C(=O)/C=C/c3ccco3)CC2)c1	-4	x	x	101	i	0.94	x
2	O=S(=O)(c1ccccc1)N1CCN(S(=O)(=O)c2ccccc2)C1	-13	-26	139	96	i	0.85	0.7
3	CCC(=O)NCc1ccc2[nH]c(C)cc2c1	-1	6	165	107	i	0.96	x
4	CCn1c(SCC(=O)Nc2ccc(N3CCOCC3)cc2)nnc1-c1ccc(OC)cc1	2	x	x	101	i	1	-2.3
5	NCCOc1ccc(C23CC4CC(CC(C4)C2)C3)cc1	-6	x	x	102	i	0.97	x
6	CC1CN(Cc2cc(=O)n3ccsc3n2)CC(C)O1 (configuration not stated)	2	24	139	104	i	1	0.7
7	COc1cc(/C(C)=N/NC(=S)NC(C)C)cc(OC)c1OC	8	x	x	102	i	1	0.2
8	Cc1c(N2C(=O)/C(=C\c3ccccc3O)SC2=S)c(=O)n(-c2ccccc2)n1C	x	x	x	90	i	0.96	x
9	O=C(NCc1ccccc1)c1ccc(S(=O)(=O)N2CCCc3ccccc32)cc1	0	-5	122	99	i	0.91	-1.0
10	O=C(Nc1nc2c(s1)CCCC2)c1cccnc1	-8	19	116	104	i	1	-0.7
11	O=C(c1ccc(Cl)cc1)c1cnc(Nc2ccccc2Cl)s1	-5	3	75	97	i	0.84	-1.6
12	CCOC(=O)c1csc(NC(=O)COc2ccc(Cl)cc2Cl)n1	-6	14	109	107	i	0.79	0.0
13	O=C(NC(=O)c1ccccc1F)OCc1ccc(Cl)cc1Cl	x	x	x	97	i	1	x
14	Cc1ccccc1-c1nnnn1C1CCS(=O)(=O)C1 (configuration not stated)	-7	41	105	99	i	0.95	x
15	O=[N+]([O-])c1ccc2sc(SCc3nc4ccccn4c3Br)nc2c1	3	-14	126	104	i	1	-1.2
16	CCOc1ccccc1CN1CCN(C2CCSCC2)CC1CCO (configuration not stated)	-11	-28	139	97	i	1.1	x
17	CCOC(=O)C(CCCCCOc1ccccc1[N+](=O)[O-])C(=O)OCC	-9	-11	110	97	i	0.91	-0.2
18	O=C(c1cc(-c2ccccc2)n[nH]1)N1CCc2c([nH]c3ccccc23)C1c1ccccn1 (configuration not stated)	0	x	x	94	i	0.86	x
19	Cc1ccc(-c2nn(Cc3ccccc3)cc2/C=C/C(=O)O)cc1	3	8	98	101	i	0.9	-0.8
20	COCCCNC(=S)Nc1ccc(C)cc1[N+](=O)[O-]	-2	x	x	100	i	0.86	x
21	O=C(O)C1CCN(c2ncccn2)CC1	90*	-13	97	103	i	0.89	-2.7
22	CCOC(=O)C1(Cc2ccccc2C(F)(F)F)CCN(C(C)CSC)CC1 (configuration not stated)	0	x	x	104	i	0.98	x
23	CCOC(=O)C1(CCOc2ccccc2)CCN(Cc2ccc(-n3cccn3)cc2)CC1	-2	x	x	98	i	0.9	x
24	Cc1ccccc1C(=O)c1cccn1CC(=O)NCCC1=CCCCC1	-4	-67	69	106	i	0.91	x
25	O=C(CSc1ncccn1)n1c2c(c3ccccc31)CCCC2	-4	x	x	83	i	0.88	-2.4
26	Cc1ccc2nc(-c3ccc(NC(=O)CN4CCN(C(=O)c5ccco5)CC4)cc3)sc2c1	6	-27	98	97	i	0.8	0.2
27	CCOc1ccccc1-n1nnnc1SCC(=O)O	x	x	x	93	i	0.91	x
28	Cc1cc(C)c2cc(CN(CCO)C(=O)Nc3ccc(F)cc3)c(=O)[nH]c2c1	-10	13	71	103	i	0.87	-1.1
29	COC(=O)c1cc[n+](CC(=O)c2ccccc2)cc1	2	-65	88	100	i	1	-0.4
30	CN1CCN(/N=C/c2nc(-c3ccccc3Cl)n3ccccc23)CC1	0	x	x	100	i	0.99	-0.5
31	Cc1ccnc(NC(=O)c2ccc3c(c2)C(=O)N(CC2CCCO2)C3=O)c1 (configuration not stated)	3	x	x	96	i	0.92	x
32	CCN(CC)S(=O)(=O)c1ccc(-c2nnc(SCC(=O)N3c4ccccc4CC3C)n2CC)cc1 (configuration not stated)	-2	3	143	85	i	0.92	0.0
33	Cc1ccc(NC2=C/C(=N/S(=O)(=O)c3cccs3)c3ccccc3C2=O)cc1C	-1	-54	122	96	x	x	-0.7
34	O=S(=O)(NCCc1ccncc1)c1cc(Br)ccc1F	3	-24	65	106	i	0.82	-0.7
35	CCOc1ccc(Nc2c3ccccc3nc3ccccc23)cc1	x	x	x	101	i	0.58	x
36	Cc1cc(C(C#N)c2ccccc2)n2ncnc2n1 (configuration not stated)	-4	-53	79	104	i	1.1	-0.3
37	Cc1cc(C)nc(N=Nc2c(O)n(Cc3ccc(Cl)cc3)c3ccccc23)n1	-8	31	121	57	i	0.81	-1.1
38	C/C(=N/Nc1nc(-c2ccccc2F)nc2ccccc12)c1ccccc1O	x	x	x	100	i	1.3	x
39	Cn1nc(C(=O)Nc2ccc(S(=O)(=O)N3CCCC3)cc2)ccc1=O	-3	29	113	102	i	1	-2.0
40	Cc1cc(C(=O)COC(=O)c2ccc(Br)o2)c(C)n1Cc1ccco1	-8	x	x	98	i	0.96	x

# One compound at a time, as listed above:
# `CCN(CC)S(=O)(=O)c1ccc(-c2nnc(SCC(=O)N3c4ccccc4CC3C)n2CC)cc1` (configuration not stated) across the screens: PKD1 inh = -2; Insulin prom inh = 3; Insulin prom inh cell count = 143; RGS16-Gao = 85; HSV replic up = i; HSV replic up primary fold = 0.92; GALR2 ag = 0.0
# `Cc1ccc(NC2=C/C(=N/S(=O)(=O)c3cccs3)c3ccccc3C2=O)cc1C` across the screens: PKD1 inh = -1; Insulin prom inh = -54; Insulin prom inh cell count = 122; RGS16-Gao = 96; HSV replic up = x; HSV replic up primary fold = x; GALR2 ag = -0.7

# Additional records
nr	SMILES	PKD1 inh	Insulin prom inh	Insulin prom inh cell count	RGS16-Gao	HSV replic up	HSV replic up primary fold	GALR2 ag
41	C[n+]1nc(Nc2cccc3ccccc23)sc1-c1ccc(C(=O)O)cc1	x	x	x	104	i	1	x
42	COC(=O)Cn1c(=O)c(=O)n(CC(=O)OC)c2ccccc21	-1	0	59	104	i	0.97	x
43	Cc1cccc(-c2nc3cc(NC(=O)C4CCCO4)ccc3o2)c1 (configuration not stated)	-5	-21	90	179*[activator]	i	0.97	0.5
44	O=C(CCNc1n[nH]c(=O)[nH]c1=O)N/N=C/c1ccc(C(F)(F)F)cc1	-5	-42	107	96	i	0.99	x
45	O=S(=O)(c1ccc(Cl)nc1)N1CCc2ccccc21	x	x	x	101	i	0.99	x
46	O=C(c1ccccc1S(=O)(=O)NCC(O)COc1ccc([N+](=O)[O-])cc1)N1CCCCC1 (configuration not stated)	0	-12	85	96	i	1	-1.6
47	CC(C)CC(=O)NCCCCc1ccccc1	-8	-19	125	106	i	1	0.8
48	CCS(=O)(=O)N1CCCC(C(=O)NCC2CCCO2)C1 (configuration not stated)	11	31	175	106	i	0.96	-1.9
49	COc1cccc(NC(=O)CN(C)CC(=O)Nc2ccc(Br)cc2)c1	1	-36	136	108	i	0.93	x
50	O=[N+]([O-])c1ccc(N2CCSCC2)cc1	2	58	84	98	i	0.99	x

# Five of the entries above in order of the HSV replic up primary fold value, lowest first.
no.	canonical_smiles	HSV replic up primary fold
49	COc1cccc(NC(=O)CN(C)CC(=O)Nc2ccc(Br)cc2)c1	0.93
48	CCS(=O)(=O)N1CCCC(C(=O)NCC2CCCO2)C1 (configuration not stated)	0.96
43	Cc1cccc(-c2nc3cc(NC(=O)C4CCCO4)ccc3o2)c1 (configuration not stated)	0.97
44	O=C(CCNc1n[nH]c(=O)[nH]c1=O)N/N=C/c1ccc(C(F)(F)F)cc1	0.99
47	CC(C)CC(=O)NCCCCc1ccccc1	1

# Other compounds follow.
nr	SMILES	PKD1 inh	Insulin prom inh	Insulin prom inh cell count	RGS16-Gao	HSV replic up	HSV replic up primary fold	GALR2 ag
51	O=C(O)CCCCOn1ccnc1	1	x	x	99	i	0.93	x
52	COc1ccccc1C1=NOC(COC(=O)c2ccc(Br)cc2)C1 (configuration not stated)	6	-31	120	103	i	0.86	-1.8
53	COC(=O)c1ccc(COc2cc([N+](=O)[O-])cc3cccnc23)cc1	x	x	x	99	i	1	x
54	Cc1ccc(CNc2ccc3c(c2)OCO3)c(C)c1	9	-376	85	90	u	x	-0.5
55	O=C(Nc1ccccc1)N(CCN1CCOCC1)Cc1ccccc1F	-6	-72	79	107	i	0.97	-2.1
56	CCOC(=O)/C(=C/C=C/c1ccccc1)NC(=O)c1ccccc1	-6	30	48	115	i	0.94	-2.9
57	C=C1CCN(Cc2ccccc2)S(=O)(=O)c2ccccc21	x	x	x	78	i	1.1	x
58	CCc1cccc2c(=O)c(C(=O)NCCCOC)c[nH]c12	-4	x	x	102	i	1	x
59	Cc1c(NC(=O)c2ccc(F)c(S(=O)(=O)N3CCOCC3)c2)c(=O)n(-c2ccccc2)n1C	-6	-28	131	103	i	0.96	-0.7
60	CCOC(=O)c1cc(NC(=O)c2ccc(C)cc2)c(=O)oc1C(F)(F)F	1	54	110	101	i	0.89	x
61	CC(C)(C)c1ccc(C(CC(=O)O)NC(=O)Cc2ccc(F)cc2)cc1 (configuration not stated)	-2	15	105	86	i	1.1	x
62	CCc1nc(SCC(=O)c2ccc(C)c(C)c2)n[nH]1	0	46	95	96	i	0.96	-1.6
63	CCn1cnc2sc(C(=O)Oc3cccc(C)c3)c(C)c2c1=O	5	-6	48	103	i	0.93	x
64	C/C(=N\Nc1ncc(Cl)cc1Cl)c1ccc(S(=O)(=O)NCc2ccco2)cc1	-8	x	x	93	i	1	-1.6
65	O=C1O/C(=C/c2ccccc2)N=C1c1ccccc1	0	-415	105	109	i	1.1	-1.3
66	CC(C)(C)NC(=O)CSc1nc2scc(-c3ccccc3)c2c(=O)[nH]1	-10	27	104	114	i	1.1	-0.4
67	C/C=C/C(=O)OCC(=O)Nc1cc(-c2cc(C)c(C)cc2C)nn1-c1ccccc1	-12	x	x	102	i	1.1	0.0
68	CCc1ccc(OCCNC(=O)c2cccs2)cc1	-4	19	104	116	i	0.89	-0.6
69	CCCCCCc1cc2cc(-c3nnc(-c4ccccc4O)o3)c(=O)oc2cc1O	-13	-270	110	111	x	x	18*
70	O=C(NCc1ccccc1Cl)C1CCCN(S(=O)(=O)c2cccc3nsnc23)C1 (configuration not stated)	-1	18	104	99	i	1	-2.0
71	CC(=O)N(CC(=O)O)c1ccccc1C(=O)O	2	-14	147	106	i	0.99	-3.3
72	O=[N+]([O-])c1ccc2nc(-c3ccc(Cl)cc3)n(OCc3ccccc3)c2c1	-1	x	x	101	x	x	-0.4
73	N/C(=N\OC(=O)COc1ccc([N+](=O)[O-])cc1)c1ccncc1	-4	x	x	117	i	1.1	x
74	Cc1oc(-c2cc3c(cc2Cl)OCO3)nc1CN1CCCC(C(=O)N2CCOCC2)C1 (configuration not stated)	-5	-88	107	97	i	0.94	x
75	NNC(=O)CNC(c1ccccc1)c1cc(Br)ccc1NC(=O)c1cccc(Cl)c1 (configuration not stated)	-6	-47	107	104	i	1	-1.2
76	COC(=O)[C@H](Cc1ccccc1)NC(=O)NCc1ccc(S(N)(=O)=O)cc1	0	x	x	83	i	1	-1.7
77	Cc1nn(Cc2ccccc2Cl)c(C)c1NC(=O)CSc1n[nH]c(C)c1[N+](=O)[O-]	5	x	x	96	i	0.99	-0.4
78	CC1(C)Oc2ccc3ccc(=O)oc3c2/C(=C/N)C1=O	13	x	x	101	i	0.83	-1.3
79	Nc1[nH]nc2c1NN(c1ccc(Cl)cc1Cl)N2	6	x	x	101	i	0.58	-3.0
80	N#Cc1cc2sc3nnc(-c4ccncc4)n3c2cc1C#N	-7	x	x	98	i	0.88	-0.4

# Some of these compounds in order of length of the SMILES, lowest first.
nr	SMILES	PKD1 inh	Insulin prom inh	Insulin prom inh cell count	RGS16-Gao	HSV replic up	HSV replic up primary fold	GALR2 ag
80	N#Cc1cc2sc3nnc(-c4ccncc4)n3c2cc1C#N	-7	x	x	98	i	0.88	-0.4
78	CC1(C)Oc2ccc3ccc(=O)oc3c2/C(=C/N)C1=O	13	x	x	101	i	0.83	-1.3
77	Cc1nn(Cc2ccccc2Cl)c(C)c1NC(=O)CSc1n[nH]c(C)c1[N+](=O)[O-]	5	x	x	96	i	0.99	-0.4
